High-throughput results deposited in PubChem by ICCB-Longwood Screening Facility, Harvard Medical School.
HCMV UL50-53 inh: inhibitors of HCMV UL50-UL53 interaction, biochemical, HTRF; normalized percent inhibition; inhibition, % (no concentration beside the values); actives 0.15% (n = 190,000);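 active = both replicates at 50% or more, plus weaker picks with an unusually low signal ratio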;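 also: stock transfer was 100 nL into about 20 µL; 0% = negative control wells and 100% = wells with untagged competitor protein; inactives centre near -12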
Sa growth inh: S. aureus growth inhibition at 42 and 30 °C, primary screen, LtaS inhibitor project, RN4220, two temperatures; OD600, 20 h, 42 °C; hits give low values; relative growth, % (no concentration beside the values); actives 0.53% (n = 170,000); AID 720641, 2013;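 active = growth at 42 °C up to 50% and 20 or more points under that at 30 °C, or under 10% at both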;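 also: 300 nL library stock went into each well; scaled to the means of positive and negative controls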
GIV Gai3 FP: inhibitors of GIV peptide binding to Galpha-i3, primary screen, biochemical, fluorescence polarization, FITC-GIV GBA peptide, rat Galphai3 | 90 min; hits give low values; scaled: aluminum fluoride 0%, vehicle 100% | percent of control (FP), % (concentration not given with the values) | actives 0.42% (n = 210,000);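 active = replicate mean at 85% of control or lower, very high polarization wells dropped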;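 also: wells of about 15 µL received 100 nL stock; the first replicate is given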
Target sequence (P08753 whole entry, looked up): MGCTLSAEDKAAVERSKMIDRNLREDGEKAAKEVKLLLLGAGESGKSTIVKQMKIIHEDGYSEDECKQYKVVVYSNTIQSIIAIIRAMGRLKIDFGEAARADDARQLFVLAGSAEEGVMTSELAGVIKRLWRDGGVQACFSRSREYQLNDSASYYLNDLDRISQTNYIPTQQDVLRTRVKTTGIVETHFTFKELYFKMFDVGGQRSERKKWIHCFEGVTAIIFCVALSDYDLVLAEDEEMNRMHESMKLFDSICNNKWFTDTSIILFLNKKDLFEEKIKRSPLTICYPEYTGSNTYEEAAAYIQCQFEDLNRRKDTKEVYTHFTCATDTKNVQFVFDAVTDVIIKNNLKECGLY
Sa growth inh second temp: further read-out of Sa growth inh, marked with its call; relative growth, %; measured here: growth at 30 °C;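 optical density after 20 h as mean of two plates; 100% = untreated growth and lower means inhibition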
Numbers without * were called inactive; nt = not tested or not shown.

SMILES	HCMV UL50-53 inh	Sa growth inh	Sa growth inh second temp	GIV Gai3 FP
COc1ccc(-c2ccc3c(N)c(C(=O)Nc4ccc(C(F)(F)F)cc4)sc3n2)cc1OC	-8	100	90	109
COC(=O)CN(c1ccc(C(C)C)cc1)S(C)(=O)=O	8	100	101	102
COc1cccc(CN2C(=O)CN(C3CCCCC3)C(=O)C2c2ccc(OC)c(OC)c2)c1 (stereo not drawn)	nt	91	92	107
COc1ccc(NC(=O)c2oc3ccccc3c2NC(=O)c2cc(OC)c(OC)c(OC)c2)cc1	-1	95	90	102
CCN(CC)S(=O)(=O)c1ccc(C(=O)N2CCc3ccccc32)cc1	-25	78	91	nt
CCCC(=O)Nc1ccc(Br)cc1	-20	122	84	nt
COC(=O)c1c(NC(=O)c2cc(=O)c3ccccc3o2)sc2c1CCCC2	-21	nt	nt	125
CC(C)NC(=O)COc1ccc(S(=O)(=O)N(C)Cc2ccccc2)cc1	0	97	95	100
COc1cccc(C2C3CN(C(C)=O)CC=C3C(C#N)=C(N)C2(C#N)C#N)c1 (stereo not drawn)	-52	92	74	114
Cn1sc(=O)c2ccc(S(=O)(=O)NCCc3ccncc3)cc21	nt	81	51	102
Cc1cccc(C(=O)N2c3ccccc3NC(=O)CC2C)c1 (stereo not drawn)	-13	nt	nt	103
CCOc1ccc(OCC)c(NC(=O)c2cc(S(=O)(=O)N3CCCC3)cn2C)c1	-9	122	86	100
O=C(CCc1ccccc1)Nc1ccc2c(c1)C(=O)OC2	4	118	82	103
COCC(C)n1c(COc2ccccc2F)nn(CN2CCN(c3ccc(O)cc3)CC2)c1=S (stereo not drawn)	2	113	101	nt
O=C1OCC(c2ccccc2)=C1c1ccc(S(=O)(=O)N2CCOCC2)s1	-66	96	91	nt

In the list so far, two have two or more sulfur atoms.
SMILES	HCMV UL50-53 inh	Sa growth inh	Sa growth inh second temp	GIV Gai3 FP
Cn1sc(=O)c2ccc(S(=O)(=O)NCCc3ccncc3)cc21	nt	81	51	102
O=C1OCC(c2ccccc2)=C1c1ccc(S(=O)(=O)N2CCOCC2)s1	-66	96	91	nt

The main list resumes, starting three compounds before the break.
SMILES	HCMV UL50-53 inh	Sa growth inh	Sa growth inh second temp	GIV Gai3 FP
O=C(CCc1ccccc1)Nc1ccc2c(c1)C(=O)OC2	4	118	82	103
COCC(C)n1c(COc2ccccc2F)nn(CN2CCN(c3ccc(O)cc3)CC2)c1=S (stereo not drawn)	2	113	101	nt
O=C1OCC(c2ccccc2)=C1c1ccc(S(=O)(=O)N2CCOCC2)s1	-66	96	91	nt
N/C(COc1cccc(C(F)(F)F)c1)=N\O	-20	102	87	104
CCc1ccccc1N/C=C(\C#N)c1nc2ccccc2[nH]1	-5	103	61	99
O=C(Cc1n[nH]c(=O)c2ccccc12)NCCO	-30	nt	nt	107
O=c1[nH]c(O)c(C=NCCSCc2cccs2)c(=O)[nH]1	-16	79	96	nt
Cc1nn(-c2ccccc2)c2c1-c1sc(C(=O)N3CCC(N4CCCCC4)CC3)cc1CC2	-76	nt	nt	106
Nc1nonc1-c1nc2ccccc2n1Cc1ccc(Br)cc1	-16	99	93	104
O=C(c1ccc2nc(/C=C(\O)c3ccc(Cl)cc3)c(=O)[nH]c2c1)N1CCN(c2ccco2)CC1	-81	75	81	330
CCOC(=O)c1c(NC(=O)COc2ccc(C(C)(C)C)cc2)sc2c1CCCC2	-53	98	87	103
COc1ccc(Nc2oc(-c3ccccc3)nc2C#N)cc1	4	96	111	103
CCCc1cc(C(=O)Nc2cccc(C(F)(F)F)c2)no1	-18	79	77	99
CCc1ccc(NC(=O)c2cnc(SC)nc2C)cc1	nt	88	84	118
COCCNC(=O)c1cnc2sc(N3CCCCC3)nn2c1=O	nt	80	89	96
CCOC(=O)c1c(C)n(-c2ccccc2)c2ccc(OC(=O)c3ccc(C(=O)c4ccccc4)cc3)cc12	-3	nt	nt	164
CN(C)S(=O)(=O)c1ccc2oc3nnc(SCc4ccccc4)n3c2c1	-3	74	85	nt
CCOC(=O)Cn1nc(C(F)(F)F)c(Cl)c1C	-23	91	83	102
CCCCN(CC)C(=O)c1cc2c(=O)n3cccc(C)c3nc2s1	-32	90	89	102
O=c1nc2s/c(=C\c3ccco3)c(=O)n2nc1Cc1ccccc1	-46	78	61	101
COc1ccc2oc(=O)c(C(=O)N3CCN(c4cc(Cl)ccc4Cl)CC3)cc2c1	-24	88	88	109
COc1ccc(Nc2nc(=O)[nH]nc2C)cc1	-18	93	91	99
COc1ccc(-n2ccn(Cc3ccccc3Cl)c(=O)c2=O)cc1OC	-58	124	95	100
CCOc1ccc(C(=O)N2CCCCC2)cc1	-15	103	89	nt
CCOC(=O)Cn1c(=O)n(-c2ccc(F)cc2)c2nc(-c3cc(F)ccc3F)nc(C(N)=O)c21	-17	nt	nt	108
CCOC(=O)c1ccc(S(N)(=O)=O)o1	-11	96	95	95
Cc1cc(C)c(NC2=NC(CO)(CO)CS2)c(C)c1	7	107	110	101
CN(C)c1ccc(CNC(=O)C2CCN(S(=O)(=O)c3cn(C)cn3)CC2)cc1	nt	99	90	100
CN(Cc1ccccc1)C(=O)CN(C1CCCCC1)S(C)(=O)=O	-1	95	96	106
CSc1ccccc1NS(=O)(=O)c1ccccc1	14	111	91	102
CNCC(O)COc1cccc(OC)c1 (stereo not drawn)	-4	86	91	nt
CCc1ccc(NC(=O)Cc2cccs2)cc1	-17	123	85	nt
Cc1cc2ccccc2c(=O)n1CC(=O)N1CCCCC1	nt	96	87	99
Cc1noc2nc(CCC(=O)O)nc(N3CCOCC3)c12	-6	nt	nt	97
CCC(=O)N1CCCc2cc(S(=O)(=O)N3CCC(C(=O)Nc4ccc(C#N)cc4)CC3)ccc21	nt	89	78	105
COc1cccc(N2CC(NC(=O)C(c3ccccc3)c3ccccc3)CC2=O)c1 (stereo not drawn)	nt	114	88	95
Cc1cccc(-c2nnn3c2nc(NCc2ccccc2)c2ccccc23)c1	-32	116	84	108
CC1CC2(C)Oc3ccccc3C3OCC1(CO)C(C)C32 (stereo not drawn)	25	87	101	nt
COc1ccc2ccccc2c1C=C1C(=O)OC2(CCCC2)OC1=O	nt	105	94	100
COc1ccc(NC(=O)CC2C(=O)N(c3ccc(C)cc3)C(=O)N2Cc2cccnc2)cc1 (stereo not drawn)	nt	102	84	103
Cc1cc(Cl)ccc1OCC(=O)N1N=C(C(F)F)CC1(O)C(F)F (stereo not drawn)	-33	58	37	99
CCC1C(=O)N=C(SCc2ccccc2)NC1=O (stereo not drawn)	-16	nt	nt	104
Nn1cc(-c2ccccc2)nc1SC(F)F	-25	96	87	nt
Cc1ccc(-n2ccn(CC(=O)c3ccc(F)cc3)c(=O)c2=O)cc1C	-12	93	89	100
Cc1ccc2c(CNCc3cccs3)c(C(=O)O)n(Cc3ccc(F)cc3)c2c1	nt	77	72	108
CCCCC(CC)CNC(=O)CCCc1nnc2n(CCC)c(=O)c3sccc3n12 (stereo not drawn)	2	102	86	101
CCOC(=O)CSC1=C(C#N)C(c2ccc(OCc3ccccc3)cc2)CC(=O)N1 (stereo not drawn)	-20	nt	nt	104
Cc1ccc(-n2nc(N3CCCN(C(=O)c4ccc5c(c4)OCO5)CC3)ccc2=O)cc1	-45	nt	nt	103
CC(C)c1nc2cc3sc(C(C)C)nc3cc2s1	nt	67	98	102
CCc1ccc(N2C(=O)N(CC(=O)C(C)(C)C)c3ccccc3S2(=O)=O)cc1	nt	95	89	104
O=C(CN1C(=O)c2ccccc2C1=O)N1CCCCCC1	-12	94	92	103
CC1CCC(C(C)C)C(OCC(O)CN2CCN(c3ccccc3)CC2)C1 (stereo not drawn)	-1	98	95	nt
COc1ccc(N2CCN(C(=O)CCCC(=O)c3ccccc3)CC2)cc1	nt	100	98	101
O=[N+]([O-])c1ccc(Nc2nc(OCC(F)(F)C(F)F)nc(OCC(F)(F)C(F)F)n2)cc1	-24	nt	nt	98
CCN1CCN(C(=O)c2ccc(N3CCNCC3)c(NS(=O)(=O)c3ccc(F)cc3)c2)CC1	3	nt	nt	108
O=C(/C=C/c1ccccc1)Nc1nc(-c2cccs2)ns1	-31	92	84	101
C=CCc1ccccc1OCc1cccc(C(=O)O)c1	nt	57	36	111
ClCc1csc(Nc2ccccc2)n1	8	80	99	nt
COc1ccc(C2C3=C(CC(c4ccco4)CC3=O)Nc3ncnn32)cc1 (stereo not drawn)	-32	77	90	102
CCN(CCCN)c1ccccc1	-20	112	84	103
COc1ccccc1CN(C)C(=O)CSc1nc(C)c(C)n1C1CCCC1	-23	96	88	nt
COc1ccc(C2=CC(c3cccc(C)c3)n3nnnc3N2)cc1 (stereo not drawn)	nt	65	68	100
N#CCS(=O)(=O)c1ccco1	-21	96	86	102
Continuation:
SMILES	HCMV UL50-53 inh	Sa growth inh	Sa growth inh second temp	GIV Gai3 FP
COc1ccc(-c2nnc(SCC(=O)c3ccccc3)o2)cc1	-24	88	80	104
CCc1ccc(NC(=O)CSc2nc(=O)n(Cc3ccccn3)c3c2CCC3)cc1	nt	130	77	103
O=C(NCc1ccco1)c1noc2c1CCc1ccccc1-2	-25	109	96	98
Cc1cccc(-n2nnnc2SCC(=O)N2CC(C)OC(C)C2)c1 (stereo not drawn)	14	92	95	nt
O=C(Nc1ccc(-c2ccno2)cc1)C1CCN(C(=O)c2ccc(-c3noc(C4CC4)n3)cc2)CC1	-21	nt	nt	107
CCC(C(=O)Nc1cc(OC)ccc1OC)n1c(=O)c(C(F)(F)F)nc2ccccc21 (stereo not drawn)	nt	84	89	105
COc1cccc(CNC(=O)CSc2ncc3c(n2)-c2cc(Cl)ccc2N(C)S3(=O)=O)c1	nt	107	91	101
CCn1cc(C(=O)OCC(=O)Nc2cc(Cl)ccc2C)c(=O)c2ccc(C)nc21	-15	98	94	102
CC(C)C(=O)N1CCN(c2ccc(NC(=O)c3ccccc3)cc2)CC1	-2	109	82	99
O=C(COC(=O)c1cc[n+]([O-])cc1)c1ccc2[nH]c(=O)[nH]c2c1	-76	94	85	nt
Cc1ccc(-c2ccc(=O)n(CC(=O)N3CC(C)CC(C)C3)n2)cc1 (stereo not drawn)	-25	102	98	98
COC(=O)CNC(=O)c1ccncc1Br	0	99	83	96
CCOc1ccc(C(=O)Nc2ccc3nc(SCCOc4ccccc4)sc3c2)cc1	-11	111	92	95
COc1ccc2ccc(OC)c(/C=c3\sc4n(c3=O)C(c3ccccc3OC)C(C(C)=O)=C(C)N=4)c2c1 (stereo not drawn)	-22	nt	nt	99
Cn1cnc(S(=O)(=O)N2CCC(C(=O)N3CCN(c4cccc(C(F)(F)F)c4)CC3)CC2)c1	nt	111	96	102

The list goes on; it opens with the three that closed the last part.
SMILES	HCMV UL50-53 inh	Sa growth inh	Sa growth inh second temp	GIV Gai3 FP
CCOc1ccc(C(=O)Nc2ccc3nc(SCCOc4ccccc4)sc3c2)cc1	-11	111	92	95
COc1ccc2ccc(OC)c(/C=c3\sc4n(c3=O)C(c3ccccc3OC)C(C(C)=O)=C(C)N=4)c2c1 (stereo not drawn)	-22	nt	nt	99
Cn1cnc(S(=O)(=O)N2CCC(C(=O)N3CCN(c4cccc(C(F)(F)F)c4)CC3)CC2)c1	nt	111	96	102
Cc1cc(NC(=O)COc2ccc3oc4ccccc4c3c2)no1	12	83	93	nt
O=C(Nc1nncs1)c1cc2c(s1)CCC2	-23	104	93	nt
COc1cccc(Nc2nc(C)c([N+](=O)[O-])c(Nc3cccc(OC)c3)n2)c1	-10	nt	nt	102
CCn1c(=O)c(N2CCC(C(=O)NCCc3c[nH]c4ccccc34)CC2)nc2ccccc21	-45	nt	nt	100
CCc1ccccc1NC(=O)Cn1c(=O)n(Cc2ccco2)c(=O)c2sc3ccccc3c21	-13	89	84	103
COc1cccc(CN(C(=O)c2oc3cc(C)ccc3c2C)C2CCS(=O)(=O)C2)c1 (stereo not drawn)	-10	109	79	106
